High-throughput results (PubChem)
T cruzi repl – blocks replication of Trypanosoma cruzi; AID 1885; T. cruzi beta-gal in NIH3T3, luminescence, 90 h; inhibition, % (concentration not given with the values); 1.4% of 300,000 active;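 active = mean inhibition across valid replicates above about 55%, limit read from the data; inconclusive = mean below that limit but half or more replicates reach it; inactive = mean below it, under half of replicates reach it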;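 also: signal also drops with host cell toxicity which is not excluded here; 0% = plate median of DMSO wells and 100% = zero luminescence signal; higher percent means less beta-gal luminescence so fewer parasites; stock transfer was 50 nL into about 50 µL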
Ecoli rRNA inh – inhibits bacterial ribosomal RNA function over humanized ribosomes | 1.6% of 350,000 active | GFP signal change (wild-type ribosome), % (no concentration beside the values) | E. coli WT GFP vs humanized-ribosome RFP mutants, fluorescence, 24 h; stronger effect = lower value; DMSO median 0, no signal -100;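 active = significant combined selectivity score with lowered wild-type GFP, culture density cut under 30%, mutant RFP and density less affected; inactive = any of these conditions unmet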; also: one replicate is shown; some compounds called inactive have numbers as strong as hits
LANA-H2A inh – blocks KSHV LANA binding to histone H2A/H2B | Q9QR71 | cell-free LANA-H2A/H2B peptide, fluorescence polarization | inhibition, % (test concentration not listed) | 0.6% of 320,000 active; in the data active = inhibition mostly above about 10%, no sharp cut-off; inactive = mostly below about 6.7%;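 also: stock transfer was 7.5 nL into about 10 µL; 0% = median of vehicle wells and 100% = median of positive control wells; one replicate is shown; the record names a cut of 25% in any replicate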
ALR H2O2 inh – inhibitors of human sulfhydryl oxidase ALR; 3.8% of 290,000 active; inhibition, % (test concentration not listed); purified ALR, DTT oxidation, H2O2 HRP-luminol luminescence; P55789;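 active = mean and each replicate at 75% or more; inconclusive = only one of the two met; inactive = neither met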;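 also: stock transfer was 7.5 nL into about 7.5 µL; 0% = neutral wells and 100% = wells with inactivated enzyme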
Target sequence (P55789 whole entry, looked up): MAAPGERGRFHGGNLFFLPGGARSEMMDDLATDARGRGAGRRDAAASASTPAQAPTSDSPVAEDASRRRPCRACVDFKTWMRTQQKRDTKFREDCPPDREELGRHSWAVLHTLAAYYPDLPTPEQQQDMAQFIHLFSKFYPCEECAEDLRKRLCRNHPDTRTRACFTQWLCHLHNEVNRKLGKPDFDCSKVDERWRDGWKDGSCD
Calb FLC – C. albicans growth modulation with fluconazole. 0.57% of 300,000 active. C. albicans CaCi-2 (fluconazole-resistant clinical isolate) + fluconazole, Alamar Blue growth, 48 h. growth inhibition, % (concentration not given with the values). AID 1979;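 active = most replicates above 75%; inconclusive = exactly half above 75%; inactive = most below 75%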;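 also: all wells also contain fluconazole at 8 µg/ml as a sub-toxic cotreatment; 0% = median of DMSO wells and 100% = median of geldanamycin control wells; wells of about 8 µL received 7.5 nL stock; the first replicate is given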
Beta2AR agonist – activates human beta-2 adrenergic receptor causing internalization; Am2.2-beta2AR cells, FAP receptor internalization, flow cytometry; reference of the scale not given here; P07550; AID 504454; 0.43% of 340,000 active; response, % (no concentration beside the values);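 active = response above a set limit, near 3 SD of response in nonfluorescent compounds, cut at about 42% in these data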;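 also: stock transfer was 100 nL into about 11 µL; a reference agonist was the positive control; negative values mostly stem from fluorescent compounds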
Target sequence (P07550 whole entry, looked up): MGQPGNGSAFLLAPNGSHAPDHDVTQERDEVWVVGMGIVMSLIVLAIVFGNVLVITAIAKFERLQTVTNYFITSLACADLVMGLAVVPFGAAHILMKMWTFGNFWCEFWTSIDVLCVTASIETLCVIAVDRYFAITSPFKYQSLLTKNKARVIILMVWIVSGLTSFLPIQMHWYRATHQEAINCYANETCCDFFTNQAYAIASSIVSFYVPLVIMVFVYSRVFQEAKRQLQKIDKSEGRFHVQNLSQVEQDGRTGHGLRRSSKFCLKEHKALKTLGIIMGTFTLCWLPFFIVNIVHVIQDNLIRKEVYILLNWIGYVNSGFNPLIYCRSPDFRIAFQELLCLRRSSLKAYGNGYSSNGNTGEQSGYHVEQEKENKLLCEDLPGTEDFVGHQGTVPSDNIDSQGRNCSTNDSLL
Beta apoptosis – blocks beta cell apoptosis; 0.8% of 300,000 active; INS-1E cytokine-induced death, ATP luminescence, 48 h; percent of positive-control rescue, neutral wells zero; protection from apoptosis, % (concentration not given with the values); AID 435005;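 active = all replicates at 75% or more, or half of them and the mean; inconclusive = half reach 75% but not the mean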;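 also: 0% = cytokine-treated negative control wells and 100% = positive control rescue; higher means more ATP so stronger rescue from cytokine killing; wells of about 40 µL received 100 nL stock; the first replicate is given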
Bfl-1 A1 inh – inhibitors of the anti-apoptotic protein A1, read as caspase activation. MEF A1-2A-BIM cells, Caspase-Glo 3/7 luminescence, 3 h; percent of clofoctol response, vehicle zero. caspase activation, % (test concentration not listed). 0.066% of 330,000 active;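 active = over half of replicate activation scores above 10%, or exactly half above 10 with the replicate mean above 10; inconclusive = replicate mean below 10 yet half the replicates above 10; inactive = over half of replicates below 10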;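 also: wells of about 30 µL received 50 nL stock; many hits fall short of the cut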
Ecoli rRNA inh OD600 – recorded beside Ecoli rRNA inh, whose call it bears; OD600 change, %; measured here: OD600 growth;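 optical density of the mix in the first replicate; 0 = DMSO median and -100 = no signal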
Ecoli rRNA inh RFP – recorded beside Ecoli rRNA inh, whose call it bears; RFP signal change, %; measured here: RFP humanized mutant strains;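 first replicate; 0 = DMSO median and -100 = no signal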
Starred values were filed as active, the others as inactive; ? = inconclusive; nt = no result given. The list is partial (hit frequency here may not be typical).

SMILES	T cruzi repl	Ecoli rRNA inh	Ecoli rRNA inh OD600	Ecoli rRNA inh RFP	LANA-H2A inh	ALR H2O2 inh	Calb FLC	Beta2AR agonist	Beta apoptosis	Bfl-1 A1 inh
O=C(NN1C(=O)C2C3C=CC(C4CC34)C2C1=O)c1ccc(Cl)cc1 (centres undefined)	-4	nt	nt	nt	-3.3	-17	5	-1	-13	0.3
COc1cccc(NC(=O)C2(S(=O)(=O)c3ccc(Cl)cc3)CC2)c1	-1	-7	-5	-0.8	7.8	nt	4	-3	6	-0.7
N#CC1(NC(=O)COc2ccc3ccc(=O)oc3c2)CCCCC1	-10	0	0	-1.7	-0.4	-19	2	-2	nt	-0.7
Cc1cc(/C=N/NC(=O)c2cccs2)c(C)n1-c1cnccn1	-7	6	3	3.5	4.5	12	-14	4	6	-1.2
O=C(Nc1ccc2c(c1)OCCO2)C1CCN(c2nnnn2-c2ccccc2)CC1	1	-9	-7	5.2	-4.2	-19	21	0	7	1.4
CC(=O)c1c(C)[n+]([O-])c2ccc3c(non3O)c12	-1	-15	-17	1.2	0.1	-10	10	-2	3	0.9
N#Cc1ccc(/C=C\c2nccc3c2[nH]c2ccccc23)cc1	32	14	9	9.9	-9.7	12	-4	28	6	0.7
COc1ccc(CN(C)C(=O)Cn2ccsc2=N)cc1OC	-6	12	7	-1.9	2.0	-25	-3	-2	0	-0.7
C=CCCCCc1nc2ccccc2c(=O)n1N	5	nt	nt	nt	0.0	-5	2	-4	-5	0.2
COc1cc(NC(=O)c2cccs2)c(C(=O)OCC(=O)c2cc(C)n(-c3ccc(F)cc3)c2C)cc1OC	-16	5	11	1.2	-0.5	-6	14	7	-4	0.3
C[C@@H]1Cc2c(O)c(O)cc(O)c2C(=O)O1	-12	nt	nt	nt	5.9	53	1	1	nt	0.3
CCOC(=O)C1=C(c2ccccc2)NC(=O)NC1c1cc(Br)c(O)c(OC)c1 (centres undefined)	10	-12	-20	-9.6	8.1	30	-13	-8	0	-0.3
COc1ccccc1C(=O)NCC(=O)N/N=C/c1ccc([N+](=O)[O-])cc1	9	18	10	11	-4.0	19	-1	-14	6	2.9
CCc1cccc(C)c1NC(=O)C1CC=CCC1C(=O)O (centres undefined)	-8	17	10	1.3	-2.2	-19	-4	8	-6	0.0
O=C(O)c1cccc(S(=O)(=O)Nc2ccc(S(=O)(=O)N3CCOCC3)cc2)c1	-4	18	11	2.0	-2.0	-4	-9	2	-6	-0.1
CCn1c(/C(C#N)=N/O)nc2ccccc21	-8	nt	nt	nt	-4.7	-4	14	0	2	-0.2
CC(O)CCC(=O)NNC(=S)Nc1ccccc1 (centres undefined)	25	-22	-42	-17	3.3	33	-21	1	1	-0.3
O=C(C1CCN(S(=O)(=O)c2ccc(Br)s2)CC1)N1CCN(c2ccccc2)CC1	-17	-5	-17	12	-1.7	13	2	4	0	-0.8
Cn1cc(Cl)c(C(=O)OCC(=O)Nc2ccc(S(N)(=O)=O)cc2)n1	-2	2	13	0.2	nt	nt	-3	0	nt	nt
O=C(c1ccc(Cl)c(Cl)c1)N1CCN(c2ccccn2)CC1	-6	-5	3	0.7	0.5	-7	11	-7	2	0.9
CN(C)c1ccc(N=Cc2nc(-c3ccccc3)oc2OC(=O)c2ccccc2)cc1	-24	nt	nt	nt	-2.0	49	-12	-8	-6	-4.4
CCN(CC(=O)NC1CCS(=O)(=O)C1)S(=O)(=O)c1ccc(C)c(C)c1 (centres undefined)	-3	nt	nt	nt	-5.2	-28	-10	2	2	1.1
CC1(C)CC(=O)C(C=NCCN2CCN(C3CC(=O)N(c4cccc(Br)c4)C3=O)CC2)=C(O)C1 (centres undefined)	-4	6	5	2.6	8.0	nt	-1	-16	-1	0.3
NS(=O)(=O)c1ccc(NC(=S)NC2CCCCCC2)cc1	-1	nt	nt	nt	-1.1	96*	-10	-7	-10	-1.4
c1nc(NCCN2CCOCC2)c2sc3nc(N4CCOCC4)c4c(c3c2n1)CCC4	1	3	0	6.2	0.7	-1	-3	46*	0	0.4
COc1ccc(Cl)cc1NC(=S)NC(=O)c1ccco1	nt	nt	nt	nt	-3.0	nt	nt	-19	-2	0.5
COC(=O)[C@]1(Cc2ccccc2)N[C@H](CN(C)C(=O)Nc2ccc(C(F)(F)F)cc2)[C@@H]2C(=O)N(C)C(=O)[C@@H]21	nt	-4	-12	3.8	nt	-7	nt	0	-3	0.4
CCOC(=O)c1c(C)[nH]c(C)c1C(=O)COC(=O)/C=C/c1ccc(OC(F)F)cc1	14	-19	-14	11	3.7	2	-13	9	-3	-0.1
OCCn1c(SCCOc2ccccc2)nc2ccccc21	-9	nt	nt	nt	-1.5	-6	-8	-12	nt	0.5
O=C(O)CCCCCNC(=O)c1ccncc1	4	21	9	2.0	-1.0	-11	-10	6	4	1.0

7 of these compounds in another layout:
The line under a structure holds: T cruzi repl	Ecoli rRNA inh	Ecoli rRNA inh OD600	Ecoli rRNA inh RFP	LANA-H2A inh	ALR H2O2 inh	Calb FLC	Beta2AR agonist	Beta apoptosis	Bfl-1 A1 inh
Cn1cc(Cl)c(C(=O)OCC(=O)Nc2ccc(S(N)(=O)=O)cc2)n1
 : -2	2	13	0.2	nt	nt	-3	0	nt	nt
CC(=O)c1c(C)[n+]([O-])c2ccc3c(non3O)c12
 : -1	-15	-17	1.2	0.1	-10	10	-2	3	0.9
c1nc(NCCN2CCOCC2)c2sc3nc(N4CCOCC4)c4c(c3c2n1)CCC4
 : 1	3	0	6.2	0.7	-1	-3	46*	0	0.4
C[C@@H]1Cc2c(O)c(O)cc(O)c2C(=O)O1
 : -12	nt	nt	nt	5.9	53	1	1	nt	0.3
CC(O)CCC(=O)NNC(=S)Nc1ccccc1 (centres undefined)
 : 25	-22	-42	-17	3.3	33	-21	1	1	-0.3
COc1ccc(CN(C)C(=O)Cn2ccsc2=N)cc1OC
 : -6	12	7	-1.9	2.0	-25	-3	-2	0	-0.7
COc1cccc(NC(=O)C2(S(=O)(=O)c3ccc(Cl)cc3)CC2)c1
 : -1	-7	-5	-0.8	7.8	nt	4	-3	6	-0.7

Further structures follow.
SMILES	T cruzi repl	Ecoli rRNA inh	Ecoli rRNA inh OD600	Ecoli rRNA inh RFP	LANA-H2A inh	ALR H2O2 inh	Calb FLC	Beta2AR agonist	Beta apoptosis	Bfl-1 A1 inh
O=C(C1CCCN(Cc2ccncc2)C1)N1CCc2ccccc2C1 (centres undefined)	15	nt	nt	nt	0.8	-3	0	-1	1	-0.9
c1ccc(Cn2ncc3c(NCc4ccco4)ncnc32)cc1	-23	nt	nt	nt	-3.7	7	3	-8	3	0.1
O=C(CN(Cc1ccccc1F)S(=O)(=O)c1ccc(Cl)cc1)NCCCO	1	0	3	-2.2	2.2	-17	3	1	-3	-0.3
CCOc1ccc(Cn2c(=O)oc3ccc(C)cc32)cc1OC	-7	nt	nt	nt	-1.7	nt	10	20	9	-0.3
NC(=O)NC(Cc1ccccc1)C(=O)NCCCSc1ccccc1 (centres undefined)	-7	-2	-1	1.3	-3.0	-1	-5	-6	0	0.2
CCc1cccc(NC(=O)CCS(=O)(=O)c2cccc3nonc23)c1	-19	nt	nt	nt	0.5	-2	0	5	-2	-0.8
O=C(Nc1ccc(O)cc1)c1ccc2c(c1)C(=O)N(N1C(=O)c3ccccc3C1=O)C2=O	-4	17	10	1.9	-0.8	91*	-7	-1	-4	0.0
CCCCn1c(=NC(C)=O)c(C#N)cc2c(=O)n3cccc(C)c3nc21	9	11	1	-0.7	3.2	4	-3	-5	6	1.1
CCOc1ccc(OCCC(=O)OCC(=O)NC2CCCCC2)cc1	-3	4	10	1.0	-1.5	5	-6	2	-2	-0.3
O=c1[nH]c(/C=C/c2ccccc2OC(F)F)nc2c1cnn2-c1ccccc1	15	-4	11	5.4	-7.8	-3	-8	1	-3	-0.4
Cc1ccc(C(=O)CSc2nc(-c3ccccc3)ccc2C#N)cc1	?	nt	nt	nt	-13	-13	-23	-26	-6	0.3
CN(C)c1ccc(C(=O)OCC(=O)N2CCCCCC2)cc1	5	nt	nt	nt	-4.6	6	-14	0	1	-0.6
Cc1cc(C)c(Cn2ncn(-c3ccc(Br)cc3)c2=O)c(C)c1	34	21	20	2.2	2.8	nt	-3	34	-11	0.7
COc1ccc(/C=C/C(=O)c2ccc(C)c([N+](=O)[O-])c2)cc1O	-3	-6	-4	0.7	-5.9	35	-7	-8	1	0.0
O=C(COC(=O)c1ccco1)NCc1ccc2c(c1)OCO2	0	13	8	2.7	5.2	nt	2	1	-2	-0.1
O=C(Nc1cccc(-c2ccc(N3CCOCC3)nn2)c1)c1ccc([N+](=O)[O-])cc1	32	8	14	-0.8	-4.7	-3	10	12	nt	-1.0
CC(CC(=O)O)NCC1COc2ccccc2O1 (centres undefined)	-15	21	7	-1.3	-1.2	-1	-8	-12	-2	-1.1
CCOC(=O)c1cnc(-c2ccccc2)nc1N(C)C	2	-15	-11	-1.8	0.5	-3	-3	3	-3	0.0
O=C1CCN(Cc2ccccc2)CCN1CCOc1ccccc1	-8	11	6	-0.6	3.5	0	-4	-5	44	1.5
Cc1cccc(OCCOc2ccc(/C=N/NC(=O)Cc3nnc(N)s3)cc2)c1	-2	nt	nt	nt	-3.3	-21	3	-10	-4	0.2
NC(CC(=O)O)c1cccc(OCc2ccccc2)c1 (centres undefined)	nt	nt	nt	nt	-7.7	nt	nt	-7	-3	2.0
Cc1ccc(C(=O)C(C)OC(=O)c2ccccc2[N+](=O)[O-])cc1 (centres undefined)	6	nt	nt	nt	-0.2	1	-6	-21	1	-0.4
CCc1ccc2[nH]c(=O)c(CN(CCCO)C(=O)NCc3ccccc3)cc2c1	-3	nt	nt	nt	-0.7	1	7	1	nt	0.9
CC1(OC(=O)CCc2ccccc2)C(=O)C=C2C=C(c3ccc(C#N)cc3)N(C(CO)CO)C=C2C1=O (centres undefined)	1	3	1	6.8	-0.5	nt	8	0	-15	0.5
Cc1cc(NC(=O)CCC(=O)N(c2ccccc2)C(C(=O)NCC2CCCO2)c2cccnc2)no1 (centres undefined)	-17	nt	nt	nt	-4.3	-1	-6	-8	-21	-0.3
O=C(c1ccccc1)c1cc2ccccc2oc1=O	1	-1	-5	0.3	-1.0	2	2	-6	-4	-0.6
CSc1ccc(CNC(=O)C2Cc3cc(S(=O)(=O)N4CCCC4)ccc3N2C(C)=O)cc1 (centres undefined)	6	4	1	-0.3	-4.9	-3	-3	-12	nt	1.6
COc1ccc(CCNC(=O)CSc2nc3c(c(=O)n(C)c(=O)n3C)n2C)cc1OC	5	nt	nt	nt	-2.5	1	10	1	1	-0.9
CC(NS(=O)(=O)c1ccc(OCC(=O)N2CCCC2)cc1)c1ccccc1 (centres undefined)	-14	5	0	-1.3	-1.7	-3	-2	3	-6	-0.2
